# Bioassay records deposited in PubChem by Southern Research Institute.
# Mtb H37Rv: Confirmatory growth inhibition assay against Mycobacterium tuberculosis H37Rv, potency (AID 1949); most inactive calls were filed without a number and no value below 0 was filed; inhibition, % at 10 µg/mL, or IC50 in µg/mL where a hit was titrated; 100,000 tested, 1.6% active;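 active means confirmed in a dose series; inconclusive means about 50% or more but not retested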;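 further: bacteria grown 7 days with compound before Alamar blue readout; 0% = untreated bacteria and 100% = reference antibiotic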
# Active calls of the source: *; i = inactive; u = inconclusive. A portion of the library, so the mix of outcomes need not match the whole.
SMILES,Mtb H37Rv
C=CCn1c(SCC(=O)N2CCc3ccccc3C2)nc2sc(CC)cc2c1=O,i
O=C(Nc1ccc(N2CCN(Cc3ccccc3Cl)CC2)cc1)c1ccco1,7%
Cc1cc(Br)cc(C)c1NC(=O)c1cccc([N+](=O)[O-])c1,7%
O=C(NC(=S)Nc1ccccc1OC(F)F)c1ccco1,9%
CN(c1ccc(O)cc1)c1nc(O)c(C2=c3ccccc3=NC2=O)s1,20%
O=S(=O)(Nc1ccc(Cl)cc1F)c1cccc2cccnc12,28%
O=C(NC(=S)Nc1cccc2ccccc12)c1ccc(Cl)cc1Cl,i
CCOC(=O)C1CCN(S(=O)(=O)c2ccc(NC(C)=O)cc2)CC1,i
COc1ccc(CC(=O)NCc2nnc(SCC(=O)Nc3cc([N+](=O)[O-])ccc3C)n2C)cc1,i
Cc1c(Cl)cccc1Nc1nc(N)nc(CN2CCCCCC2)n1,35%
CC(C)N(C(=O)c1cc(-c2cccc(Br)c2)nc2ccccc12)C(C)C,43%
Cc1nc(SCc2c(C)noc2C)c2c3c(sc2n1)CCC3,0%
C=CCn1c(SCC(=O)c2c[nH]c3ccccc23)nnc1-c1ccc2ccccc2n1,i
O=C(Nc1ccc(Cl)cc1)NC(C(=O)O)c1ccccc1 (stereo not given),4%
Cc1cc(=O)oc2cc(OCC(=O)Nc3ccc(OC(C)C)cc3)ccc12,i
CCOC(=O)Nc1sc(C)c(CC)c1C(=O)OC,i
O=S(=O)(Nc1ccc(O)c(-c2c(O)ccc3ccccc23)c1)c1cccc2ccccc12,i
CCn1c(Cc2ccccc2)nnc1SCC(=O)Nc1ccc(C(C)C)cc1,i
Cc1cc2c(cc1C)C(c1ccccc1Br)CC(=O)N2 (stereo not given),i
O=C(NCc1cccnc1)c1ccc(Cl)s1,i
Fc1ccc(C2=CC(c3ccccc3Cl)n3nnnc3N2)cc1 (stereo not given),1%
CC(=O)Nc1ccc(Sc2ccccc2C(=O)O)cc1,i
CC(C)CNC(=O)c1ccccc1NC(=O)c1ccc(Cl)c(Cl)c1,6%
COc1ccc(CCNC(=O)C2CC(C)=C(C)CC2C(=O)O)cc1OC (stereo not given),i
O=C(CN(Cc1ccccc1F)S(=O)(=O)c1ccc(Cl)cc1)NCc1ccccn1,i
COc1ccc(S(=O)(=O)N(CC(=O)NCc2cccnc2)c2ccccc2)cc1OC,i
Cc1nn(S(=O)(=O)c2ccc(F)cc2)c(C)c1Sc1ccc(Cl)cc1,i
c1ccc2c(OCCn3nnc4ccccc43)cccc2c1,2%
Cn1ncc(Br)c1C(=O)Nc1ccccc1Cl,i
CCN(CC)c1ccc(NC(=O)c2cccc(C)c2)cc1,i
CC(C)Cc1nnc(NC(=O)CCCOc2ccc(Cl)cc2Cl)s1,i
NC(=O)c1sc2nc(C34CC5CC(CC(C5)C3)C4)ccc2c1N,2%
COc1ccc(-c2noc(CCc3ccccc3)n2)cc1,11%
CCOC(=O)Nc1ccc(Cl)cc1F,i
COc1ccc(N(C2C=CS(=O)(=O)C2)S(=O)(=O)c2ccccc2)cc1 (stereo not given),i
NS(=O)(=O)c1ccc(NC(=S)Nc2ccc(OC(F)F)c(Cl)c2)cc1,i
CCc1ccccc1N1C(=O)CC(SCC(=O)Nc2ccc(Cl)cc2)C1=O (stereo not given),i
N#Cc1nc(COc2cccc(Cl)c2)oc1N1CCCC1,i
O=C(CCc1ccccc1)Nc1cccc(S(=O)(=O)N2CCCC2)c1,i
COc1ccc(N2CCN(C(=O)C(C)N3C(=O)c4ccccc4C3=O)CC2)cc1 (stereo not given),i
CCOCc1nnc(NC(=O)c2ccccc2Oc2ccccc2)s1,1%
Cc1ccnc(NC(=O)COc2c(C)cc(C)cc2Br)c1,i
O=C(CCn1nc(-c2ccc(Cl)cc2)c2ccccc2c1=O)N1CCN(c2ccccc2)CC1,44%
CNC(=S)N1N=C(c2ccc(C)cc2)CC1c1ccc(OC)cc1 (stereo not given),i
CCCc1nc2ccccc2n1C/C=C/c1ccccc1,18%
O=C(CSc1nc(-c2ccccc2)cc(=O)[nH]1)Nc1ccc(Oc2ccccc2)cc1,i
Cc1cc(C(=O)N2CCN(c3ccccn3)CC2)c(C)o1,i
O=C(CN(c1ccccc1)S(=O)(=O)c1ccc(Cl)cc1)Nc1cccc([N+](=O)[O-])c1,i
COc1cccc(OC(=O)c2cccc([N+](=O)[O-])c2C)c1,u
N#Cc1cccc(NC(=O)c2ccc3c(c2)OCO3)c1,i
O=C(CCc1ccccc1)NN1C(=O)CCC1=O,i
CCOC(=O)Nc1ccc2c(c1)nc(CN1CCCCC1)n2C,i
O=C(c1ccc(COc2ccc(I)cc2)o1)N1CCCC1,7%
COc1ccccc1Cn1c(COc2ccccc2)nc2ccccc21,i
O=C(NC(=S)Nc1ccc(I)cn1)c1ccc2c(c1)OCCO2,5%
O=C1C2C(C(=O)N1Cc1cccnc1)C1C=CC2C12CC2 (stereo not given),i
C=CCNCCCOc1ccc(Br)cc1Cl,i
CC(=O)Nc1cc(Cl)ccc1N1CCOCC1,i
C=CCNC(=O)C(C)N(c1ccc(C)cc1)S(C)(=O)=O (stereo not given),i
Cc1ccc(/C(N)=N/OC(=O)CN(C)S(=O)(=O)c2ccc3ccccc3c2)cc1,4%
# (more compounds)
SMILES,Mtb H37Rv
COc1ccc(N(CC(=O)N2CCN(C)CC2)S(=O)(=O)c2ccccc2)cc1Cl,i
COc1ccc(C(=O)NC(=S)Nc2nc(-c3cccc4ccccc34)cs2)cc1[N+](=O)[O-],i
Cc1cccc(N(C(=O)Nc2ccc(Cl)cc2)C2=NCC(C)S2)n1 (stereo not given),i
CCOC(=O)C1CCCN(C(=O)c2cccc(OC)c2)C1 (stereo not given),5%
CC1=C(C(=O)Nc2ccccc2)C(c2ccccn2)n2nnnc2N1 (stereo not given),7%
Cc1ccc(-c2csc3ncn(CCc4ccccc4)c(=O)c23)cc1C,i
Cc1c(NC(=O)CSc2nnnn2Cc2ccccc2)c(=O)n(-c2ccccc2)n1C,i
N#Cc1cccc(NC(=O)NC2CCCCC2)c1,i
CCC(C)NC(=O)c1ccccc1NC(=O)CN(c1ccccc1Cl)S(=O)(=O)c1ccccc1 (stereo not given),i
COc1cc(OC)c(C2=NOC(C(=O)Nc3ccn(Cc4ccccc4C)n3)C2)cc1Cl (stereo not given),i
CC(C)CNC(=O)c1ccc(NC(=O)c2ccc(C(C)(C)C)cc2)cc1,i
CCOc1cc(C=O)ccc1OCCOc1ccccc1OC,i
CC1=CC2=C(C1=O)C(C(C)C)C(C#N)=C(N)S2 (stereo not given),1%
COc1ccc(OC)c(NC(=S)NC(=O)c2ccc(C)cc2C)c1,i
Nc1nc2c(o1)-c1[nH]c(=O)ncc1C2c1cccc(C(F)(F)F)c1 (stereo not given),i
CCN(CC)c1ccc(C(=O)Nc2ccc(OC)cc2)cc1[N+](=O)[O-],11%
COc1ccc([N+](=O)[O-])cc1NC(=O)CN(c1ccc(C)cc1C)S(C)(=O)=O,i
CCCCNCCOCCOc1ccc(OCC)cc1,i
COC(=O)c1ccc(NS(=O)(=O)c2ccc(OC)c(Cl)c2Cl)cc1,i
O=C(CC1(O)C(=O)Nc2ccc(I)cc21)c1ccc(Cl)cc1 (stereo not given),i
CC(C)(C)CC(C)(C)NCC(O)COc1c(F)cc(Br)cc1F (stereo not given),5%
CCN1CCN(CCCOc2cccc(Oc3ccccc3)c2)CC1,i
O=C(COc1ccc(F)cc1)N(CC1=CCS(=O)(=O)C1)c1ccccc1,i
Cc1ccc(C2C=C(c3ccccc3)Nc3nc(NS(=O)(=O)c4ccccc4)nn32)cc1 (stereo not given),i
COc1cc(N/C(N)=N\c2nc(C)cc(C)n2)c(OC)cc1Cl,i
CC(NC(=O)COc1ccccc1C(C)(C)C)c1ccccc1 (stereo not given),i
COc1ccc(OC)c(S(=O)(=O)Nc2ccc(OC)c(OC)c2)c1,i
O=C(COc1ccc2c(c1)CCC2)NNC(=O)Nc1ccccc1C(F)(F)F,i
COc1cc(C=O)ccc1OC(=O)N(c1ccccc1)c1ccccc1,15%
COC(=O)c1ccc(NC(=O)COc2cc(Cl)ccc2Cl)cc1,i
O=C(NCCSC1CCCCC1)c1ccc(-c2ccccc2)cc1,i
COc1ccc(NC(=O)C(C)c2ccc([N+](=O)[O-])cc2)cc1Cl (stereo not given),11%
CCN(CC)S(=O)(=O)c1ccc(Cl)c(NC(C)=O)c1,i
COc1cccc(NC(=S)NC(NC(=O)Cc2ccccc2)C(Cl)(Cl)Cl)c1 (stereo not given),i
Cc1c(NC(=O)c2sc3cc(F)ccc3c2Cl)c(=O)n(-c2ccccc2)n1C,i
S=C(NC1CCCCC1)N1CCN(c2ncccn2)CC1,0%
CC1(C)CC(=O)C2=C(C1)N(Cc1cccnc1)C(=O)C2(NC(=O)c1ccco1)C(F)(F)F (stereo not given),i
CC1CCCCN1S(=O)(=O)c1ccc(C(=O)Nc2cccc(Br)c2)cc1 (stereo not given),i
C=C(C)COc1ccc2c(C)c(CC)c(=O)oc2c1,9%
O=C(NC(=S)Nc1ccccc1C(=O)Nc1ccccc1)c1ccc(Cl)cc1Cl,i

# A second format for two compounds above:
> c1ccc2c(OCCn3nnc4ccccc43)cccc2c1
  Mtb H37Rv = 2%

> CCn1c(Cc2ccccc2)nnc1SCC(=O)Nc1ccc(C(C)C)cc1
  Mtb H37Rv = i

# Continuation.
SMILES,Mtb H37Rv
COc1cc(NC(=S)NCc2ccc(S(N)(=O)=O)cc2)cc(OC)c1,i
COc1ccc(CCNC(=S)N2CCN(C(c3ccccc3)c3ccccc3)CC2)cc1OC,12%
Cc1cc(C)c(NC(=O)COc2ccc(C)cc2C(C)(C)C)c(C)c1,0%
Cc1ccc(C(=O)CSc2nsc3sc(C(=O)c4ccc(C)cc4)c(N)c23)cc1,i
CC1CC(C)CN(CCOc2ccc([N+](=O)[O-])cc2)C1 (stereo not given),2%
CCOC(=O)c1ccc(NC(=S)NC(NC(=O)c2ccc(Br)cc2)C(Cl)(Cl)Cl)cc1 (stereo not given),6.2µg/mL*
CCN(Cc1ccccc1)C(=O)C1CCN(Cc2ccc(Cl)cc2)CC1,i
CCC(C)c1ccc(OCC(=O)Nc2cccc(-c3nc4ccccc4o3)c2C)cc1 (stereo not given),7%
O=C(NCCOCC(F)(F)C(F)F)c1cc(F)c(F)cc1Cl,i
CCOc1cc(/C=C2/SC(=S)NC2=O)cc([N+](=O)[O-])c1OCCCOc1cccc(C)c1,i
CC1(C)CC(=O)C2=C(C1)Nc1[nH]c(=S)[nH]c(=O)c1C2c1cccc(Oc2ccccc2)c1 (stereo not given),3%
CCOC(=O)CSc1nnnn1-c1ccc(OC)cc1,i
CCN(CC)C(=O)c1c(NC(=O)c2ccccc2F)sc2c1CCCC2,i
COc1cc(NS(=O)(=O)c2ccc(NC(=O)CSc3nc(N)cc(=O)[nH]3)cc2)nc(OC)n1,i
CCOc1ccc(NC(=O)CSc2nnc(C(C)NC(=O)c3ccc(Cl)c(Cl)c3)n2CC)cc1 (stereo not given),i
COc1cccc(NC(=O)CN(c2ccccc2OC)S(C)(=O)=O)c1,i
COC(=O)C1=C(C)NC(=O)NC1c1cc(I)c(OCc2ccccc2)c(OC)c1 (stereo not given),10%
Cc1ccc(S(=O)(=O)Nc2cccnc2)cc1C,i
COC(=O)c1ccc(NC(=O)CC23CC4CC(CC(C4)C2)C3)cc1,u
Cc1ccc(C(=O)Nc2cccc(-c3cc4ccccc4oc3=O)c2)c(C)c1,2%
CC12CCC(C(=O)N3CCC(C(=O)O)CC3)(CC1=O)C2(C)C (stereo not given),i
CS(=O)(=O)N(CC(=O)NCCC1=CCCCC1)c1ccccc1,i
O=C(CC1C(=O)N(c2ccccc2)C(=S)N1NC(=O)c1ccccn1)Nc1ccc(Cl)cc1 (stereo not given),i
Cc1cc(=O)[nH]c(Nc2nc3ccccc3s2)n1,i
Cc1nn(C(=O)C2CC2)c(C)c1Sc1ccc([N+](=O)[O-])cc1,2%
Cc1ccc(S(=O)(=O)Nc2ccccc2F)cc1C(=O)O,i
CCC(C(=O)Nc1ccc(CC(=O)O)cc1)c1ccccc1 (stereo not given),i
CC(C)(C)c1ccc(OCCNCc2ccccc2)cc1,i
COC(=O)C1=CN(c2ccc(F)cc2)C=C(C(=O)OC)C1c1ccc(Cl)s1,i
CC(C)(O)C(=O)NNC(=S)NCc1ccco1,i
COC(=O)c1cc(OC(=O)c2ccccc2Br)n(C)n1,i
NC(=O)c1ccccc1NC(=S)NC(=O)Cc1ccccc1,i

# Among those listed so far, 17 have fluorine:
SMILES,Mtb H37Rv
O=C(NC(=S)Nc1ccccc1OC(F)F)c1ccco1,9%
O=S(=O)(Nc1ccc(Cl)cc1F)c1cccc2cccnc12,28%
Fc1ccc(C2=CC(c3ccccc3Cl)n3nnnc3N2)cc1 (stereo not given),1%
O=C(CN(Cc1ccccc1F)S(=O)(=O)c1ccc(Cl)cc1)NCc1ccccn1,i
Cc1nn(S(=O)(=O)c2ccc(F)cc2)c(C)c1Sc1ccc(Cl)cc1,i
CCOC(=O)Nc1ccc(Cl)cc1F,i
NS(=O)(=O)c1ccc(NC(=S)Nc2ccc(OC(F)F)c(Cl)c2)cc1,i
Nc1nc2c(o1)-c1[nH]c(=O)ncc1C2c1cccc(C(F)(F)F)c1 (stereo not given),i
CC(C)(C)CC(C)(C)NCC(O)COc1c(F)cc(Br)cc1F (stereo not given),5%
O=C(COc1ccc(F)cc1)N(CC1=CCS(=O)(=O)C1)c1ccccc1,i
O=C(COc1ccc2c(c1)CCC2)NNC(=O)Nc1ccccc1C(F)(F)F,i
Cc1c(NC(=O)c2sc3cc(F)ccc3c2Cl)c(=O)n(-c2ccccc2)n1C,i
CC1(C)CC(=O)C2=C(C1)N(Cc1cccnc1)C(=O)C2(NC(=O)c1ccco1)C(F)(F)F (stereo not given),i
O=C(NCCOCC(F)(F)C(F)F)c1cc(F)c(F)cc1Cl,i
CCN(CC)C(=O)c1c(NC(=O)c2ccccc2F)sc2c1CCCC2,i
Cc1ccc(S(=O)(=O)Nc2ccccc2F)cc1C(=O)O,i
COC(=O)C1=CN(c2ccc(F)cc2)C=C(C(=O)OC)C1c1ccc(Cl)s1,i
